Source: PubChem BioAssay (Broad Institute)
Tg IFNy HTS – T. gondii growth inhibition under IFN-gamma. Toxoplasma gondii growth in IFN-gamma-treated host cells; active compounds read low; reference of the scale not given here. activity change, negative = inhibition, %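 (about 20 µM by stock and volumes)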. 69,000 tested, 3.8% active. AID 1259416;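 active means below -70%; inconclusive means fit judged invalid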;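 further: host cells are HeLa cells infected with Toxoplasma gondii; parasite growth read as luciferase light; one replicate is shown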
* = called active by the depositor; i = inactive; ? = inconclusive; & = joins results of further samples.

Compound	Tg IFNy HTS
COc1ccc2c3c([nH]c2c1)[C@H](CO)N(C(=O)c1ccc(F)cc1)CC31CCN(C(=O)NC(C)C)CC1	-35
CSc1ccc(C2c3[nH]c4ccccc4c3CCN2C(=O)CN2C(=O)COc3ccccc32)cc1 (stereo not drawn)	45
CO[C@@H]1CN(C(=O)Cc2ccsc2)[C@H]2CCCO[C@@H]12	3
Cc1oc(-c2ccc(NC(=O)c3ccc(C#N)cc3)cc2)nc1Cn1cccn1	-39
CCOC(=O)c1sc(SCc2ccccc2)c(S(=O)(=O)C(C)C)c1-n1cccc1	-27
COc1ccc(-c2ccc(CCC(=O)O)n2Cc2ccco2)cc1	19
COc1cc(OC)cc(C(=O)N2CCC3(CC2)Nc2cccnc2NC3=NC(C)(C)C)c1	92
O=C(NCCc1csc(-c2ccccc2)n1)[C@H]1CSCN1C(=O)c1cccc(F)c1	4
CC(=O)COC(=O)CCc1nc2ccccc2[nH]c1=O	4
CCCS(=O)(=O)N1CCO[C@H]2[C@@H](OCc3ccccn3)CC[C@H]21	1
CCCC1C=CCN1C(=O)c1cc(COc2ccc(C(C)=O)cc2)on1 (stereo not drawn)	11
C=Cc1cccc(-c2nccn2CCCO)c1	4
Cc1ccc(C)c(CNC(=O)c2nc(N3CCOCC3)c3ccccc3n2)c1	-87*
CO[C@H](CN(C)C(=O)C1CCOCC1)[C@H](C)CN(C(=O)Nc1ccc(C(F)(F)F)cc1)[C@H](C)CO	-28
Cc1ccc(C2c3[nH]c4ccccc4c3CCN2C(=O)c2ccccc2Cl)cc1 (stereo not drawn)	-118*
CCc1ccc2occ(CC(=O)N3CCCC(N4CCCC4=O)C3)c2c1 (stereo not drawn)	1
CCc1nc(C)c(C(=O)N(Cc2ccccn2)CC2CCCO2)o1 (stereo not drawn)	-34
Cn1c(C(=O)NCc2cccc(F)c2)nc2c1CCN(S(C)(=O)=O)C2	-9
COC(=O)[C@@H]1C[C@H](NC(=O)c2cc(-c3ccccc3)nn2C)CN1C	6
NC(=O)c1cnc2n1CCN(C(=O)Cc1cccs1)C2	-6

Sorted by length of the SMILES (falling): seven of the compounds above.
Compound	Tg IFNy HTS
CO[C@H](CN(C)C(=O)C1CCOCC1)[C@H](C)CN(C(=O)Nc1ccc(C(F)(F)F)cc1)[C@H](C)CO	-28
COc1ccc2c3c([nH]c2c1)[C@H](CO)N(C(=O)c1ccc(F)cc1)CC31CCN(C(=O)NC(C)C)CC1	-35
COC(=O)[C@@H]1C[C@H](NC(=O)c2cc(-c3ccccc3)nn2C)CN1C	6
Cn1c(C(=O)NCc2cccc(F)c2)nc2c1CCN(S(C)(=O)=O)C2	-9
Cc1ccc(C)c(CNC(=O)c2nc(N3CCOCC3)c3ccccc3n2)c1	-87*
CO[C@@H]1CN(C(=O)Cc2ccsc2)[C@H]2CCCO[C@@H]12	3
NC(=O)c1cnc2n1CCN(C(=O)Cc1cccs1)C2	-6

New compounds follow.
Compound	Tg IFNy HTS
Cc1nc2ccccn2c1CC(=O)N1CCc2nc(-c3cncnc3)sc2C1	19
Cc1ccc2ncccc2c1NC(=O)CC1CCNCC1	-2
COCCN(C[C@H]1N[C@H](CO)[C@@H]1c1ccccc1)C(=O)NC1CCCC1	-24
O=C(c1csc(Cc2ccccc2)n1)N1Cc2cnn(CCO)c2C1	1
Cc1c(C(=O)N2CCC(O)(CN(C)C)C2)n(C)c2c(C)cccc12 (stereo not drawn)	-5
C(=N\NC1=NCCN1)/c1c2ccccc2c(/C=N/NC2=NCCN2)c2ccccc12	-75*
CC(C)NC(=O)c1nc2ccccc2s1	18
COc1ccccc1C#Cc1ccc([C@H]2[C@H](CO)N3CCCCN(C(=O)C4CCC4)C[C@@H]23)cc1	?
O=C(Nc1ncccc1Cl)c1ccc(Cl)cc1	119
NC(=O)c1nnc2ccc(Cl)cc2c1N	11
O=C(CN1C(=O)CNC1=O)N1CCOC(Cc2ccc(F)cc2)C1 (stereo not drawn)	6
O=C(Nc1ccc(Cl)cc1)Nc1ccno1	-11
CCn1ccnc1CN1CCC(C2(c3ccccn3)NC(=O)NC2=O)CC1 (stereo not drawn)	185
C[C@H](O)Cn1cnc(-c2ccccc2)c1-c1ccc(Cn2cccn2)cc1	2
O=C(c1ccc[nH]1)N1C[C@H]2CN(Cc3cccnc3)C(=O)[C@@H]2C1	38
Cc1ccoc1C(=O)N1CC[C@@H]2CN(Cc3cccnc3)CCO[C@H]2C1	-23
Cc1cccnc1CN1CCN(Cc2ccnc3ccccc23)CC1	12
COc1ccc(C)cc1NC(=O)CNC(=O)c1coc2c1C(=O)CCC2	-4
CCCC#Cc1ccc2c(c1)[C@H]1[C@H](CCN1Cc1ccccc1F)[C@@H](CO)N2	8
O=C(NC(c1nccs1)C1CCCN(Cc2cccc(F)c2)C1)c1ccccc1 (stereo not drawn)	20
COCCO[C@H]1CCN(C(=O)C2CCOCC2)[C@H]1Cc1ccncc1	-4
C=CCN1C(=O)CCCC12CCN(C(=O)c1ccc(F)cc1)CC2	-9
COc1ccc(-c2cc(-c3ccc4ccccc4c3)n(C)c2-c2ccc(F)cc2)cc1	-94*
O=C(O)c1c(S(=O)(=O)N2CCCOCC2)sc2c1CCNC2	-2
COc1ccc(C)cc1NC(=O)Cn1ncc2c(N3CCN(c4ccccn4)CC3)ncnc21	116
CC(C)NC(=O)Nc1cccc2c1O[C@@H](CN(C)C(=O)Nc1ccccc1)[C@@H](C)CN([C@@H](C)CO)C2=O	15
Cc1cc(NC(=O)CCCC(=O)O)no1	-33
CC1=NOC(C(=O)Nc2nnc(CCOc3ccccc3Cl)s2)C1 (stereo not drawn)	-32
CCCNC(=O)N1CC2(CCN(C(=O)Cc3cccnc3)CC2)c2c([nH]c3cc(OC)ccc23)[C@H]1CO	30
COc1ccc(S(=O)(=O)NCCc2csc(-c3ccc(Cl)cc3)n2)cc1C	-53
O=C(c1ccc[nH]1)N1CCN(CC2CC2)c2ncccc2C1	-43
Cn1cnc(=N)c2[nH]cnc21	11
COc1cc(OC)c(C(=O)CCCN2CCCC2)c(OC)c1	-17&0&16
COc1ccc(NC(=O)C(=O)NCCc2sc(-c3ccc(C)cc3)nc2C)cc1	i
Cc1ccc(C)n1-c1ccc(-c2csnn2)cc1	152
O=C(NCCc1csc(-c2ccccc2)n1)[C@H]1CCCN1C(=O)Cc1ccc(F)cc1	4
CCOC(=O)c1ccc(-n2nnc(/C=C/C=C/N3CCN(C)CC3)n2)cc1	40
O=C(O)c1ccccc1-c1nccn1CCc1cccc(F)c1	1
CC[C@@H]1OC[C@@H]2CN(C(=O)c3ccnnc3)CC[C@H]21	29
COc1ccc(CN(C)C[C@H]2OCc3cnnn3CCCC(=O)N([C@H](C)CO)C[C@@H]2C)cc1	141
CO[C@@H]1CN(C)C(=O)c2ccc(NS(=O)(=O)c3ccc(C)cc3)cc2OC[C@@H](C)N(C)C[C@H]1C	130
O=C(C[C@@H]1C=C[C@H](NC(=O)Nc2cccc(F)c2)[C@H](CO)O1)NCC1CCCCC1	-7
Cc1cc(=O)[nH]c(CNC(=O)C2(N(C)Cc3ccccc3)Cc3ccccc3C2)n1	11
C[C@H]1CN([C@@H](C)CO)C(=O)CCCn2nncc2CO[C@@H]1CN(C)C(=O)Nc1ccc2c(c1)OCCO2	i
COc1cccc(C(=O)N2CCC3(CC2)CC(OCC2CC2)CO3)c1 (stereo not drawn)	-3
O=C(O)C1CNC(=O)N1C(=O)OCc1ccccc1 (stereo not drawn)	-22
CN(C)CC(=O)N[C@H]1CC[C@@H](CCNC(=O)C2CCC2)O[C@H]1CO	-27
CC(C)NC(=O)c1ccnc(-c2ccc3c(c2)OCCO3)c1	23
Cc1ccnc(NCCNCC(=O)Nc2cnccn2)c1	-11
Cc1nc(C(=O)N2C[C@@H]3COC[C@]3(COCC3CC3)C2)cs1	3
O=C1/C(=N/Nc2nc(N3CCOCC3)nc(N3CCOCC3)n2)c2cccc3cccc1c23	3
O=C(NCc1nn[nH]n1)C1CCCN(C2CCN(CCc3ccccc3)CC2)C1 (stereo not drawn)	-2
O=C(NCCc1csc(-c2ccccc2)n1)C1CCN(S(=O)(=O)c2cccc(F)c2)CC1	0
CC1CC2(CCN(C(=O)c3csnn3)CC2)c2ccccc21 (stereo not drawn)	36
O[C@@H]1CNCC[C@H]1CNCc1ccccc1-c1ccccc1	-19
COc1cccc(NC(=O)Cn2c(=O)cc(-c3nc(C(C)C)no3)c3ccccc32)c1	-36
CC(C)c1cc(C2CCCN2C(=O)CCc2cn3ccccc3n2)no1 (stereo not drawn)	3
CC(NC(=O)c1c(O)c2cccnc2n(-c2ccccc2)c1=O)c1ccccc1 (stereo not drawn)	-40
O=C(CN1Cc2ccccc2OC(c2ccccc2F)C1)NCCc1ccccn1 (stereo not drawn)	8
CC(C)c1noc(CCC(=O)N2CCN(c3nc4ccccc4s3)CC2)n1	0

The results go on.
canonical_smiles,Tg IFNy HTS
CC(=O)N1CCCC1C(=O)N1CC(C(=O)O)C1 (stereo not drawn),59
NS(=O)(=O)c1cc2c(cc1Cl)NC(Cc1ccccc1)NS2(=O)=O (stereo not drawn),19
CC(C)(O)C#Cc1ccc([C@@H]2[C@H]3CN(S(C)(=O)=O)CCCCN3[C@H]2CO)cc1,13
Cc1cc(C)nc(N(C#N)CC(=O)N2c3ccccc3CCc3ccccc32)n1,47
COCCN(C(=O)c1cccs1)C(C(=O)NC1CCCCC1)c1ccc(F)cc1 (stereo not drawn),1
CCCSc1ncccc1C(=O)Nc1c(-c2ccccc2)noc1C,25
O=C(NCCc1csc(-c2ccccc2)n1)[C@H]1CCCN1S(=O)(=O)c1cccc(Cl)c1,7
Cc1ccc(C)c(NC(=O)CN2C(=O)CCc3cc(S(=O)(=O)N4CCCCC4C)ccc32)c1 (stereo not drawn),21
CCC(=O)N1CCc2c([nH]c3ccccc23)C12C(=O)N(C)c1ccccc12 (stereo not drawn),i
CCN1CCN(CC(=O)N2CCCC(c3cc(=O)n4c(n3)CCCCC4)C2)CC1 (stereo not drawn),-1
CCC(=O)N1[C@H](CO)[C@H]2c3ccccc3N(S(=O)(=O)c3ccc(F)cc3)C[C@H]21,1
COc1ccc(CN2C[C@H](O)COC[C@H]3O[C@H](CC(=O)N(C)C)CC[C@@H]32)cc1,43
CO[C@H](CN(C)C(=O)C1CCOCC1)[C@@H](C)CN([C@H](C)CO)S(=O)(=O)c1ccccc1,-30
Cc1nc(Cn2ccnc2-c2ccc(N(C)C)nc2)nc2c1CCCC2,0
COc1ccc2oc(-c3ccccc3)c(OC)c(=O)c2c1,99
CCN1C(=O)CCc2cc(NS(=O)(=O)c3cccc4cccnc34)ccc21,238
COc1ccc(-c2cc(NC(=O)c3cnc(SC)nc3)n(C)n2)cc1,-36
Cc1ccc2c(c1)NC1(CCN(C(=O)Nc3cccc(C(F)(F)F)c3)CC1)c1cccn1-2,81
O=C(Nc1ccc2c(c1)OCO2)c1c(O)c2ccccc2[nH]c1=O,108
O=C1N=c2ccccc2=C1c1[nH]c(=S)[nH]c1O,33
Cc1ccc(C(=O)NCCc2sc(-c3ccc(Cl)cc3)nc2C)cc1,-82*
CCN1C(=O)N(C2Cc3ccccc3C2)C(=O)C12CCN(Cc1ccc3c(c1)CCCN3C)CC2,30
COc1ccc(C)cc1-c1noc([C@H]2CCCO2)n1,6
Cc1nc(C)c(CC(=O)NCc2ccc(-c3[nH]ncc3C(=O)N3CCOCC3)cc2)s1,-11
CN1CCN(C(=O)C[C@H]2CC[C@H]3[C@@H](COC[C@H](O)CN3Cc3cccc(-c4ccncc4)c3)O2)CC1,-41
Cc1cccc(S(=O)(=O)N2[C@@H]3c4cccc(=O)n4C[C@H]2[C@H](CO)[C@H]3C(=O)N(C)C)c1,5
CCS(=O)(=O)N1CCN2C(=O)c3ccccc3[C@H]2C1,3
c1csc(CN2CCCn3cnc(CN4CCCC4)c3C2)c1,2
CCc1ccccc1NC(=O)NCC(c1cccnc1)c1c[nH]c2ccccc12 (stereo not drawn),53
CN(C)S(=O)(=O)c1ccc2c(c1)CCN2C(=O)c1cncc(Br)c1,-42

Rewritten field by field: part of the list above
Molecule: Cc1ccc(C)c(CNC(=O)c2nc(N3CCOCC3)c3ccccc3n2)c1
  Tg IFNy HTS: -87*

Molecule: CO[C@H](CN(C)C(=O)C1CCOCC1)[C@H](C)CN(C(=O)Nc1ccc(C(F)(F)F)cc1)[C@H](C)CO
  Tg IFNy HTS: -28

Molecule: Cc1ccc(C2c3[nH]c4ccccc4c3CCN2C(=O)c2ccccc2Cl)cc1 (stereo not drawn)
  Tg IFNy HTS: -118*

Molecule: CCc1ccc2occ(CC(=O)N3CCCC(N4CCCC4=O)C3)c2c1 (stereo not drawn)
  Tg IFNy HTS: 1

Following part
canonical_smiles,Tg IFNy HTS
Cc1c(Cl)cccc1Nc1ccccc1C(=O)O,10&5
COc1ccc(-c2nccc(C(F)(F)F)n2)cn1,62
CC(C)CC(=O)N1CCC2(COCc3cnc(NCc4ccco4)nc32)C1 (stereo not drawn),-7
C[C@H](c1ccc(F)cc1)n1c(CCn2cccn2)n[nH]c1=O,4
CCOC1C2CCC1N(C(=O)c1cc(C)nn1CC)CCO2 (stereo not drawn),-5
CCOC(=O)N1CCN(C(=O)CC2(c3ccccc3F)CC(=O)N(CCOC)C2=O)CC1 (stereo not drawn),19
CO[C@H]1CN(C)C(=O)c2ccc(NC(=O)c3nc4ccccc4s3)cc2OC[C@H](C)N(Cc2cccnc2)C[C@@H]1C,-20
O=C(C[C@@H]1CC[C@H]2[C@@H](COC[C@H](O)CN2S(=O)(=O)c2ccc(F)cc2)O1)NCCN1CCCCC1,-13
CC(C)(C)CC(=O)N1CCC2(CC1)CC(CC(=O)Nc1cccnc1)c1ccccc1O2 (stereo not drawn),110
Cc1cc(C)cc(CSCC(=O)N2CCCC3(CNC(=O)O3)C2)c1 (stereo not drawn),-3

The list is partial; rates above refer to the full screens.
